Screening results as filed in PubChem BioAssay.
HCMV UL50-53 inh: inhibitors of HCMV UL50-UL53 nuclear egress complex interaction. HTRF UL50-UL53 interaction, normalized percent inhibition. inhibition, % (no concentration beside the values). 190,000 tested, 0.15% active;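 active = both replicates at 50% or more, plus weaker picks with an unusually low signal ratio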;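 also: stock transfer was 100 nL into about 20 µL; 0% = negative control wells and 100% = wells with untagged competitor protein; inactives centre near -12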
GIV-Gai inh: blocks GIV peptide binding to rat Galpha-i3; P08753; Galpha-i3/FITC-GIV peptide fluorescence polarization, 90 min; hits give low values; scaled: aluminum fluoride 0%, vehicle 100%; percent of control (FP), % (concentration not given with the values); 210,000 tested, 0.42% active; AID 1224905;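 active = replicate mean at 85% of control or lower, very high polarization wells dropped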;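 also: wells of about 15 µL received 100 nL stock; the first replicate is given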
Target sequence (P08753 whole entry, looked up): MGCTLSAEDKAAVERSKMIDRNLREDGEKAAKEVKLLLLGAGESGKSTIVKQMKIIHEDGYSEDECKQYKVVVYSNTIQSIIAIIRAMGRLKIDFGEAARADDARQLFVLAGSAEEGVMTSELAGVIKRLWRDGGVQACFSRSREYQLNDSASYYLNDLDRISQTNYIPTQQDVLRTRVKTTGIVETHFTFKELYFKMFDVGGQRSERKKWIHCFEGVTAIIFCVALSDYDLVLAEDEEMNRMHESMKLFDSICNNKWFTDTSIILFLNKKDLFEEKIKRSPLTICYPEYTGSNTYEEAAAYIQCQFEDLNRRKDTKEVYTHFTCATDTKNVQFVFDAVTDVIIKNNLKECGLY
Sa growth inh: blocks Staphylococcus aureus growth | relative growth, % (test concentration not listed) | S. aureus RN4220 growth, OD600, 20 h, 42 °C; hits give low values | 170,000 tested, 0.53% active;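 active = growth at 42 °C up to 50% and 20 or more points under that at 30 °C, or under 10% at both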;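 also: 300 nL library stock went into each well; scaled to the means of positive and negative controls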
Sa growth inh second temp: also measured in Sa growth inh; calls as there; relative growth, %; measured here: growth at 30 °C;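 optical density after 20 h as mean of two plates; 100% = untreated growth and lower means inhibition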
* = called active by the depositor; . = no result given; & = joins results of further samples.

smiles,HCMV UL50-53 inh,GIV-Gai inh,Sa growth inh,Sa growth inh second temp
CSC(=NCc1c(Cl)cccc1Oc1ccccc1)NC#N,-12,101,95,78
Cc1ccc(C)c(NC(=O)c2ccccc2)c1,3,.,86,39
Cc1onc(-c2ccccc2)c1C(=O)OCC(=O)Nc1ccccc1,4,.,103,95
COc1ccc(-c2nn(-c3ccccc3)cc2C2NC(=O)NC(C)=C2C(=O)OC(C)C)cc1Cl (stereo not given),-2,112,100,104
Cc1cc(-c2csc(=S)n2Nc2ccccc2)ccc1Cl,-12,102,93,72
COc1cccc(N2CC(NC(=O)c3cccc(OC)c3OC)CC2=O)c1 (stereo not given),.,92,89,92
O=C(O)Cn1nnnc1SCC(=O)Nc1ccccc1F,.,101,109,80
CCN1CCCC1CNS(=O)(=O)c1cc(C(=O)OC)n(C)c1 (stereo not given),-16,106,105,103
COc1ccc2cc(CN(CC(N)=O)C(C)C)c(Cl)nc2c1,0,.,92,99
CCNCC(=O)NCc1ccc(Cl)cc1,7,.,105,103
O=C(CNC(=O)c1ccc(-c2noc(C3CCCC3)n2)cc1)NC1CCCC1,-36,108,.,.
Clc1cccc(C2C3CC=CC3c3c4c(cc5ccccc35)C3C=CCC3CN42)c1Cl (stereo not given),-19,109,.,.
COC(Cn1c(SC)nnc1-c1ccc(Cl)cc1)OC,6,104,100,103
CCCCN(C(=O)Nc1cc(C(=O)OCC)c(C)nc1C)C1CCN(C)CC1,9,100,.,.
Cc1nnc(N2CCC(C(=O)NCCc3ccccc3)CC2)c2nn(-c3ccc(Cl)cc3)c(C)c12,.,106,93,91
COc1ccccc1C(=O)Oc1cccc(-n2cnnn2)c1,-9,101,.,.
c1ccc(CN2CCN(Cc3cn[nH]c3-c3ccccc3)CC2)cc1,6,105,116,89
COc1ccc(CCN2C(=O)C(C)SC2c2ccc(C#N)cc2)cc1OC (stereo not given),-20,.,100,92
COc1ccc(OC)c(NC(=O)CSC2=Nc3ccccc3C3=NC(CC(=O)NCc4ccc(F)cc4)C(=O)N23)c1 (stereo not given),.,104,77,87
CC1=C(C#N)C(c2ccc(-c3ccccc3C(F)(F)F)o2)C(C#N)=C(C)N1,-9,101,74,50
N#Cc1ccc(-c2ccccc2F)cc1,0,106,106,84
COC(=O)c1ccccc1NC(=O)C1COc2ccccc2O1 (stereo not given),-10,99,107,84
COc1ccc(N2C(=O)CS(=O)(=O)C23C(=O)N(Cc2ccccc2F)c2ccccc23)cc1Cl (stereo not given),.,102,95,87
CC1(C)C=C(c2c[nH]c(C3=CC(C)(C)NC(C)(C)C3)c2)CC(C)(C)N1,-7,.,104,83
O=S1(=O)CCC(S(=O)(=O)NC2CCCC2)C1 (stereo not given),5&-10,99&100,104,93
COc1ccc2cc(C(=O)Nc3ccccc3)c(=Nc3cccc(C#N)c3)oc2c1,7,102,.,.
O=C(NCC1COc2ccccc2O1)c1nn(-c2ccccc2)c(=O)c2ccccc12 (stereo not given),-8,.,119,102
FC(F)(F)c1cccc(N2CCN(C(=S)Nc3ccc4c(c3)OCO4)CC2)c1,2,107,98,99
O=c1ccc(OCCOc2ccccc2)nn1-c1ccccc1,-16,106,98,98
Cc1ccccc1CSc1nnc(Cn2c(=O)sc3ccccc32)n1C,-30,103,94,84
CCOC(=O)C1=C(CC)Nc2ccccc2N=C1N=Cc1c(O)n(CC)c(=S)n(CC)c1=O,-15,.,83,80
Cc1ccc(Cl)cc1-n1c(=O)c2sc3ccccc3c2n(CC(=O)NC2CCCC2)c1=O,-42,102,108,83
N#CCSC1=CC(=O)CC(c2ccccc2)S1 (stereo not given),-44,98,84,72
CCOc1ccc(C2Oc3ccccc3C3CC(c4cccc5ccccc45)=NN32)cc1 (stereo not given),-18,98,.,.
COc1ccc(C2C(C(=O)OCCOc3ccccc3)=C(C)NC3=C2C(=O)CC(C)(C)C3)c(OC)c1 (stereo not given),-20,103,.,.
CCOc1ccc(C(=O)Nc2cccc(-c3nc4cc(Cl)cc(Cl)c4o3)c2)cc1,-44,105,104,84
COC(=O)c1c(NC(=O)COc2c(C)cccc2C)sc2c1CCCC2,-35,105,99,90
N#Cc1ccc(/C=N/c2oc(-c3ccco3)c(-c3ccco3)c2C#N)cc1,-34,.,100,93
Cc1cc(/C=N/O)nc(=O)[nH]1,.,101,95,90
CN1CCCN(C(=O)c2csc3ccccc23)CC1,-12,104,108,104
CSc1nc(N)c2ncn([C@@H]3O[C@H](COP(=O)(O)OP(=O)(O)O)[C@H](O)C3O)c2n1 (stereo not given in full),-22,102,.,.
CC(=O)c1cc(-c2ccccc2)n(CC(=O)NCCc2ccc(C)cc2)c1C,.,97,88,85
O=C(Nc1ccc2[nH]c(=O)oc2c1)c1cccc(Cl)c1,-10,102,.,.
CCCCSc1nc2c(c(=O)[nH]1)C1(CCCCC1)Cc1ccccc1-2,-4,104,.,.
COc1ccc(Cl)cc1NS(=O)(=O)c1ccc2c(c1)NC(=O)CC(=O)N2,-40,104,112,86
COC(=O)/C(=C(/O)CSc1nnc(Cc2csc(C)n2)o1)c1nc2ccccc2[nH]1,-9,.,99,93
COc1ccc(C)cc1S(=O)(=O)N1CCN(C(=O)c2ncoc2-c2cccc(C)c2)CC1,12,102,91,81
CC(C)CN(CCCNC(=O)c1cc(=O)[nH]c2ccc(S(=O)(=O)N3CCCC3)cc12)CC(C)C,.,103,96,99
O=C(CSCc1ccccc1)Nc1nccs1,-14,105,120,92
O=C1c2ccccc2C(=O)N1CN(CCCn1ccnc1)CN1C(=O)c2ccccc2C1=O,-58,104,90,75
O=C(O)CCC(=O)Nc1cccc(C(=O)c2ccccc2)c1,-9,99,101,86
COc1cccc(C2C=C(c3ccccc3)Nc3c(C(=O)Nc4ccccc4)cnn32)c1OC (stereo not given),.,105,116,91
Clc1ccc(N=NN2CCOCC2)cc1,-10,101,95,75
COc1ccc(CNC(Cc2ccccc2)c2ccccc2)c(OC)c1C (stereo not given),-7,.,83,72
O=C(O)CSCC(=O)N1CCCC1,-23,98,106,99
N#CC1=C(N)Sc2oc(-c3ccccc3)cc(=O)c2C1c1ccccc1Cl (stereo not given),-1,.,103,81
O=C(O)c1cccc2c1C(=O)N(C1CCCC1)C2,-13,100,90,93
Cc1nc(SC(C)C(=O)O)[nH]c(=O)c1Oc1ccccc1 (stereo not given),-20,.,90,89
COc1ccc2oc(=N)c(-c3nc4ccccc4[nH]3)cc2c1,.,119,104,87
Cc1ccccc1C(=O)Nc1sc2c(c1C(N)=O)CCC2,-18,.,108,78

Remaining list, next part:
smiles,HCMV UL50-53 inh,GIV-Gai inh,Sa growth inh,Sa growth inh second temp
COC(=O)c1ccccc1NC(=O)CSc1n[nH]c(CC(C)C)n1,-15,101,99,82
O=C(Cc1ccccc1)NC(=S)Nc1ccccc1O,9,105,111,101
N#CCCn1c(=S)n(CCC#N)c2ccccc21,-2,.,105,84
COc1ccc(Cl)cc1NC(=O)N1CCN(S(=O)(=O)c2ccc3c(ccn3C)c2)CC1,.,99,92,101
N#C/C(=C\c1ccc(N2Cc3ccccc3C2)cc1)C(=O)NCc1ccco1,-27,111,89,56
NC(=O)C[n+]1ccn2c(NC3CCCCC3)c(-c3ccccc3O)nc2c1,.,-75*,94,100
CCOc1ccc(NC(=O)Cn2c(=O)n(CC(=O)NCc3ccccc3Cl)c(=O)c3sccc32)cc1,-53,105,98,90
Cc1cccc(N2CCN(C(=O)CN3C(=O)COc4ccc(S(=O)(=O)N5CCC(C)CC5)cc43)CC2C)c1 (stereo not given),-10,105,97,83
CC(C)CSc1nnc2n(-c3ccccc3)c(=O)c3ccccc3n12,-1,.,100,102
Cn1nc(C(=O)NCCc2cnc[nH]2)c2c1-c1cc(F)ccc1SC2,1,109,.,.
COc1ccc(-c2noc(CSc3nc(N)cc(=O)[nH]3)n2)cc1,.,102,110,89
COc1ccc(C(=O)CCC(=O)N2CCN(c3ccccc3)CC2)cc1,-25,104,99,88
C(=C\c1ccccc1)/CNCC1CCCO1 (stereo not given),-10,103,96,80
CCOC(=O)C1=C(C)N(Cc2ccccc2)C(=O)NC1c1c(OCC)ccc2ccccc12 (stereo not given),-8,105,.,.
Cc1ccc(-c2nnc(SCC(=O)c3ccc(Cl)cc3)n2-c2ccccc2)cc1,.,99,90,82
O=C(Nc1ccc(F)cc1)c1ccc(Cn2nc(N3CCN(c4ccccc4)CC3)ccc2=O)o1,.,104,112,84
O=C1C(Cc2ccccc2)NC(=S)N1CC1CCCO1 (stereo not given),-12,.,88,97
COc1ccc(N2Cc3cccc(C(=O)Nc4cc(C)cc(C)c4)c3C2=O)cc1,-55,103,97,89
O=C(NCCc1ccc(Cl)cc1)c1cccn1-c1cccnc1,-22,104,.,.
COc1cc2c(cc1OC)C(COc1ccc3c(C)cc(=O)oc3c1)N(C(=O)c1cc(Cl)ccc1OC)CC2 (stereo not given),-3,102,98,90
COc1ccc(-c2nc3ccccc3c(C(N)=O)c2C)cc1,-28,99,88,98
COc1ccc(/C=C\c2onc(C)c2S(=O)(=O)N2CCC(C(=O)Nc3cccc(C)c3C)CC2)cc1,-41,105,100,97
Cc1ccc(S(=O)(=O)c2nnn3c2nc(N(C)Cc2ccccc2)c2cc(Cl)ccc23)cc1C,16,103,89,85
CCOC(=O)c1cc(CC)sc1NC(=O)Cn1c(=O)oc2ccccc21,8,102,96,92
Nc1nccc(-c2ccc(NC(=O)Nc3ccccc3)cc2)n1,-48,98,106,87
COC(=O)c1sccc1OCc1nnc(-c2ccc(OC)cc2)o1,-6,106,111,82
Cc1ccc(-c2cn3c(n2)sc2cc(C(=O)NCCCN4CCCCCC4)ccc23)cc1,.,112,37,17
COc1ccc(C2c3c(oc4ccccc4c3=O)C(=O)N2Cc2ccncc2)cc1 (stereo not given),-33,101,111,89
CN(CC(=O)N1CCN(c2ccccc2)CC1)S(=O)(=O)c1cc2c(cc1Cl)NC(=O)CO2,-8,105,112,83
COc1ccccc1CNC(=O)Cn1c(=O)cnc2ccccc21,-56,.,106,85
C=CCn1c(SCC(=O)O)nnc1-c1ccccc1,-2,106,.,.
O=C(Nc1ccccc1C(F)(F)F)c1cc2nc(-c3ccco3)cc(C(F)(F)F)n2n1,3,107,.,.
O=C1C(O)=C(c2ccccc2)C(c2ccc(Br)cc2)N1Cc1ccc2c(c1)OCO2 (stereo not given),-24,101,.,.
COc1cc(OC)cc(C(=O)Nc2ccccc2N2CCN(C)CC2)c1,6,102,95,105
O=C(CSc1n[nH]c(=O)n1Cc1ccccc1)Nc1ccc2c(c1)CCC2,-6,.,114,93
COc1ccccc1NC(=O)CCCN1C(=O)/C(=C/c2cccc(Br)c2)SC1=S,-20,105,.,.
Cc1ccc(/C=C/c2onc(C)c2S(=O)(=O)N2CCC(C(=O)N3CCC(N4CCCCC4)CC3)CC2)cc1,-74,108,.,.
CCN(CC)C(C(=O)NC1CCCCC1)c1ccc(OC)cc1 (stereo not given),-32,101,91,88

6 compounds drawn at random from the list so far, as already listed:
smiles,HCMV UL50-53 inh,GIV-Gai inh,Sa growth inh,Sa growth inh second temp
CCN(CC)C(C(=O)NC1CCCCC1)c1ccc(OC)cc1 (stereo not given),-32,101,91,88
O=C1C(O)=C(c2ccccc2)C(c2ccc(Br)cc2)N1Cc1ccc2c(c1)OCO2 (stereo not given),-24,101,.,.
O=C(Nc1ccccc1C(F)(F)F)c1cc2nc(-c3ccco3)cc(C(F)(F)F)n2n1,3,107,.,.
COc1ccccc1NC(=O)CCCN1C(=O)/C(=C/c2cccc(Br)c2)SC1=S,-20,105,.,.
O=C(CSc1n[nH]c(=O)n1Cc1ccccc1)Nc1ccc2c(c1)CCC2,-6,.,114,93
COc1cc(OC)cc(C(=O)Nc2ccccc2N2CCN(C)CC2)c1,6,102,95,105
